Screening results: PubChem, National Center for Advancing Translational Sciences (NCATS)
HPGD inh: inhibitors of human 15-hydroxyprostaglandin dehydrogenase (HPGD) | purified HPGD, NADH fluorescence kinetic, PGE2 substrate | Potency, µM, without a hit: at the highest dose activity change, negative = inhibition, most hits filed as inhibitors | hit rate 4.3% among 150,000 | AID 894; active = well fitted inhibition curve with a large enough effect (not every such curve was filed as active); inconclusive = small, poorly fitted or top-dose-only effect, or another doubt; inactive = no such curve, though single readings can be large or run the other way;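 also: top concentration of the series not given in the record; plate controls included wells without enzyme; inactives centre near -10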
Target sequence (P15428 whole entry, looked up): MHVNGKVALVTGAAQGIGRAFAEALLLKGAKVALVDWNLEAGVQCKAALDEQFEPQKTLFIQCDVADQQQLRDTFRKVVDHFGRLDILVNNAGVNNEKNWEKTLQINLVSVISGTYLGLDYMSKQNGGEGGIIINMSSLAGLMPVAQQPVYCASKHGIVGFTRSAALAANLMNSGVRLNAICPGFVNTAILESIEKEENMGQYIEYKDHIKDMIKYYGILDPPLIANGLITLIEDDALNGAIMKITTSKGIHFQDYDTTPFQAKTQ
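NADH formation kinetics: reaction with 30 uM PGE2 and 1 mM NAD+ (final), 20 nM enzyme, Tris-HCl pH 8 with Tween 20, after 15 min compound preincubation at room temperature. Fluorescence change, last versus first of five reads.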
Active calls of the source: *. % is scaled to controls: 0 for no effect and ±100 for the full control effect; potency is read from the fitted curve at half-maximal effect. An excerpt (hit frequency here may not be typical).

For O=C(COC(=O)c1cccs1)c1ccc2c(c1)OCCO2 the results were HPGD inh 16µM*.
For Cc1ccc(S(=O)(=O)c2c(N)n(CC3CCOC3)c3nc4ccccc4nc23)cc1 (configuration not stated) the results were HPGD inh inconclusive.
`O=C1CC(N2CCCN(C3CC(=O)N(c4ccc(F)cc4)C3=O)CC2)C(=O)N1c1ccc(F)cc1` (configuration not stated) gave HPGD inh -5%.
For O=S(=O)(O)CCN1CCOCC1 the results were HPGD inh -5%.
`Cc1ccnc(Sc2ccc([N+](=O)[O-])cc2[N+](=O)[O-])n1` gave HPGD inh -12%.
CCC(C(=O)Nc1ccccc1C(=O)N1CCOCC1)N1C(=O)c2ccccc2C1=O (configuration not stated) was read as HPGD inh -4%.
For CCOc1ccc(-c2nn(-c3ccccc3)cc2/C=C2\SC(N)=NC2=O)cc1C the results were HPGD inh 16µM*.
For CC(=O)N=c1sc2ccccc2n1C the results were HPGD inh -12%.
`Cc1ccccc1CS(=O)(=O)CCC(=O)N1CCN(c2ccc(N3CCOCC3)nn2)CC1` gave HPGD inh inconclusive.
O=C(CSc1cc(Cl)ccc1Cl)NCC(=O)Nc1ccc(F)c(F)c1F was read as HPGD inh -3%.
Screening S=C(NNc1ccc2ccccc2c1)NC1CCCCC1 returned HPGD inh -7%.
For CC(C)Nc1nc(N(c2ccccc2)c2ccccc2)nc(-n2ccnc2)n1 the results were HPGD inh -15%.
COc1ccc(C(=O)CC2OC(=O)c3c2ccc(OC)c3OC)cc1 (configuration not stated) was read as HPGD inh -15%.
For Cc1sc2ncnc(N=Nc3c(O)[nH]c4ccccc34)c2c1C the results were HPGD inh 0%.
Screening O=C(CSc1nc2ccccc2[nH]1)NCCN1CCCCC1 returned HPGD inh -19%.

3 structures from above, arranged by SMILES length, lowest first.
Screening S=C(NNc1ccc2ccccc2c1)NC1CCCCC1 returned HPGD inh -7%.
O=C(CSc1cc(Cl)ccc1Cl)NCC(=O)Nc1ccc(F)c(F)c1F was read as HPGD inh -3%.
CCC(C(=O)Nc1ccccc1C(=O)N1CCOCC1)N1C(=O)c2ccccc2C1=O (configuration not stated) was read as HPGD inh -4%.

Returning to the listing with the 7 entries that preceded the break.
`Cc1ccccc1CS(=O)(=O)CCC(=O)N1CCN(c2ccc(N3CCOCC3)nn2)CC1` gave HPGD inh inconclusive.
O=C(CSc1cc(Cl)ccc1Cl)NCC(=O)Nc1ccc(F)c(F)c1F was read as HPGD inh -3%.
Screening S=C(NNc1ccc2ccccc2c1)NC1CCCCC1 returned HPGD inh -7%.
For CC(C)Nc1nc(N(c2ccccc2)c2ccccc2)nc(-n2ccnc2)n1 the results were HPGD inh -15%.
COc1ccc(C(=O)CC2OC(=O)c3c2ccc(OC)c3OC)cc1 (configuration not stated) was read as HPGD inh -15%.
For Cc1sc2ncnc(N=Nc3c(O)[nH]c4ccccc34)c2c1C the results were HPGD inh 0%.
Screening O=C(CSc1nc2ccccc2[nH]1)NCCN1CCCCC1 returned HPGD inh -19%.
CCCN(S(=O)(=O)c1ccc(OCC)cc1)S(=O)(=O)c1cccs1 was read as HPGD inh inconclusive.
For CCn1nc(C(=O)OCC(=O)c2c[nH]c3ccccc23)c2ccccc2c1=O the results were HPGD inh -11%.
For Cc1ccc2c(COC(=O)c3cnc(C)cn3)cc(=O)oc2c1 the results were HPGD inh -11%.
For Nc1cc(=O)[nH]c(SCCNS(=O)(=O)c2ccccc2)n1 the results were HPGD inh -6%.
`CCC(=O)OCCNc1cc(SCCC(=O)OC)c2nonc2c1[N+](=O)[O-]` gave HPGD inh inconclusive.
S=c1[nH]nc(-c2cc(-c3ccco3)[nH]n2)n1-c1ccccc1 was read as HPGD inh 20µM*.
For CCC(C)NCCCOc1c(C)cc(C)cc1Br (configuration not stated) the results were HPGD inh -6%.
Screening COc1cccc(Nc2ncc3nc(-c4cc(F)cc(F)c4)c(=O)n(C4CC4)c3n2)c1 returned HPGD inh -3%.
Screening O=C(NCCNc1ccc([N+](=O)[O-])cc1C(F)(F)F)c1ccc(F)cc1 returned HPGD inh -7%.
Screening COc1ccccc1OCCC(=O)OCC(=O)NC(C)c1ccccc1 (configuration not stated) returned HPGD inh -10%.
Screening CC(=O)C1=C(O)C(=O)N(CCc2c[nH]c3ccccc23)C1c1ccc(O)cc1 (configuration not stated) returned HPGD inh -8%.
Screening COC(=O)C1=CN(c2ccc(OC)cc2)C=C(C(=O)OC)C1c1ccc(C)c([N+](=O)[O-])c1 returned HPGD inh -2%.
CCOc1ccc(-c2nn(-c3ccccc3)cc2/C=C(\C#N)S(=O)(=O)c2ccccc2)cc1C was read as HPGD inh -29%.
Screening CCCCNC(=O)NNC(=O)COc1cc(C)cc(C)c1 returned HPGD inh -4%.
CC(C)CC(NC(=O)COc1ccccc1)C(=O)O (configuration not stated) was read as HPGD inh -4%.
Screening CCOc1cc(/C=N/NC(=O)c2ccncc2)ccc1OC(=O)c1ccc([N+](=O)[O-])cc1 returned HPGD inh -12%.
CC(=O)N1CCN(C(=O)COc2ccc(Br)cc2)CC1 was read as HPGD inh -3%.
For CS(=O)(=O)NCCSc1nnnn1-c1ccccc1 the results were HPGD inh 0%.
CN/S(=N/S(=O)(=O)c1ccccc1)c1ccc(C)cc1 (configuration not stated) was read as HPGD inh -9%.
Screening COc1ccc2nc(-c3ccccc3)[nH]c2c1 returned HPGD inh inconclusive.
Cc1ccc(C(=O)Nc2cccc(C(=O)NCc3ccco3)c2)cc1 was read as HPGD inh -15%.
For Cc1nnc(N(CCC#N)CCC#N)s1 the results were HPGD inh -12%.
`O=C(COC(=O)c1ccc(S(=O)(=O)Nc2ccccc2)cc1)NCCN1C(=O)CSC1=O` gave HPGD inh -1%.
`CC(=O)NC(C(=O)c1ccccc1)C(=O)c1ccccc1` gave HPGD inh 0%.
Screening COc1cc2c(cc1NC(=O)c1cccc([N+](=O)[O-])c1)oc1ccccc12 returned HPGD inh -25%.
For COc1nc(Nc2cccc(C(F)(F)F)c2)nc(OC)n1 the results were HPGD inh -6%.
Screening Nc1nc(Nc2cccc3ccccc23)nc(C2CCCC2=O)n1 (configuration not stated) returned HPGD inh -12%.
Screening O=C(NC12CC3CC(CC(C3)C1)C2)N1CCN(C(=O)C2CCCO2)CC1 (configuration not stated) returned HPGD inh -3%.
For COc1cc2c3nnc(-c4ccc(F)cc4)c-3cn(Cc3ccc(C)cc3)c2cc1OC the results were HPGD inh -16%.
Screening CCCc1nc2c(C)cc(-c3nc4ccccc4n3C)cc2n1Cc1ccc(-c2ccccc2C(=O)O)cc1 returned HPGD inh -16%.

Random excerpt: six compounds from above
For COc1cc2c3nnc(-c4ccc(F)cc4)c-3cn(Cc3ccc(C)cc3)c2cc1OC the results were HPGD inh -16%.
For Cc1nnc(N(CCC#N)CCC#N)s1 the results were HPGD inh -12%.
`O=C(COC(=O)c1ccc(S(=O)(=O)Nc2ccccc2)cc1)NCCN1C(=O)CSC1=O` gave HPGD inh -1%.
Screening CCOc1cc(/C=N/NC(=O)c2ccncc2)ccc1OC(=O)c1ccc([N+](=O)[O-])cc1 returned HPGD inh -12%.
`CC(=O)NC(C(=O)c1ccccc1)C(=O)c1ccccc1` gave HPGD inh 0%.
For CS(=O)(=O)NCCSc1nnnn1-c1ccccc1 the results were HPGD inh 0%.

Next structures
For CSc1cccc(NC(=O)CSc2nnc(C)s2)c1 the results were HPGD inh -16%.
`O=C(COc1ccc(/C=N/NS(=O)(=O)c2ccccc2)cc1)NCc1ccccc1` gave HPGD inh inconclusive.
Screening O=C(Cc1cc(=O)[nH]c(=O)[nH]1)N1CCC(Cc2ccccc2)CC1 returned HPGD inh -13%.
COc1ccc(-n2ncc3c(NCc4cccs4)ncnc32)cc1 was read as HPGD inh inconclusive.
Screening Clc1ccccc1Sc1cnc2ccccc2n1 returned HPGD inh -9%.
Screening CN=C1CC(SC)=C1c1ccc(C)cc1 returned HPGD inh -14%.
Screening Cc1cc(C)cc(OCc2nnc(SCC(=O)Nc3ccccc3)o2)c1 returned HPGD inh -2%.
S=C(NCCCN1CCOCC1)Nc1ccc(Cl)cc1Cl was read as HPGD inh -8%.
For N#CC1=C(N)OC2=C(C(=O)CCC2)C1C1C=CCCC1 (configuration not stated) the results were HPGD inh -16%.
`Cc1nc(NCCc2ccc(S(N)(=O)=O)cc2)c2c(C)c(C)sc2n1` gave HPGD inh -9%.
CCc1cc2c(=O)c(-c3cnn(-c4ccccc4)c3)coc2c(CN2CCOCC2)c1O was read as HPGD inh inconclusive.
COc1ccc(N2C(=O)C3C4C=CC(C5CC45)C3C2=O)c([N+](=O)[O-])c1 (configuration not stated) was read as HPGD inh -16%.
Screening COc1ccc(C(Nc2ccccn2)c2oc(CO)cc(=O)c2O)cc1 (configuration not stated) returned HPGD inh inconclusive.
For CC1(C)CC2CC(C)(CN2C(=O)CCCN2C(=O)c3ccccc3C2=O)C1 (configuration not stated) the results were HPGD inh -1%.
O=C(Nc1ccc(SC(F)F)cc1)C12CCC(CC1)C2 was read as HPGD inh -4%.
For O=C(O)/C=C\C(=O)N1CCc2ccccc21 the results were HPGD inh -2%.
For O=C(Nc1ccn(-c2ccccc2)n1)c1ccc(Cl)cc1 the results were HPGD inh -22%.
`O=C(CC1Sc2ccccc2NC1=O)Nc1cccc(C(=O)O)c1` (configuration not stated) gave HPGD inh -9%.
`N/C(=N\c1nc2c(c(=O)[nH]1)CCCC2)Nc1ccccc1` gave HPGD inh -14%.
Cc1[nH]c2ccccc2c1C(=O)/C=C/c1ccccc1Cl was read as HPGD inh -16%.
CCOC(=O)c1ccc(NC(=O)CN(Cc2ccc(Cl)cc2)S(C)(=O)=O)cc1 was read as HPGD inh -11%.
Screening Cc1nc(-c2cccc(S(=O)(=O)N3CCCC(C)C3)c2)cs1 (configuration not stated) returned HPGD inh -14%.
CC1(C)CC(=O)C=C(Nc2cc(-c3ccccc3)[nH]n2)C1 was read as HPGD inh -6%.
Cc1cc(C)n(C(=O)c2ccc(S(=O)(=O)N3CCOCC3)cc2)n1 was read as HPGD inh -13%.
Screening O=C(NNC(=O)c1ccccc1-n1cccc1)c1cccc(Cl)c1 returned HPGD inh -2%.
`CC(C)COc1nc2ccccc2nc1C(C#N)C(=O)NC1CCCCC1` (configuration not stated) gave HPGD inh -16%.
Screening Cc1onc(-c2ccccc2)c1C(=O)N/N=C/c1cc(Br)c(Br)o1 returned HPGD inh inconclusive.
Screening COC(=O)C/C=C/[C@@H](C)[C@H](NC(=O)OCC(Cl)(Cl)Cl)c1ccc2ccccc2c1 returned HPGD inh -5%.
Cc1cc(C)nc(NS(=O)(=O)c2ccc(N3C(=O)C4C5C=CC(C5)C4C3=O)cc2)n1 (configuration not stated) was read as HPGD inh -1%.
Screening COc1ccc(S(=O)(=O)NC(C)C(=O)Nc2cccc([N+](=O)[O-])c2)cc1 (configuration not stated) returned HPGD inh -10%.
For COc1cc2c(cc1OC)C(c1cccs1)NCC2 (configuration not stated) the results were HPGD inh -9%.
For COc1ccc(-c2nc(-c3ccccc3)[nH]c(=O)c2C#N)cc1 the results were HPGD inh 20µM*.
O=c1cc[nH]c2cc(Cl)ccc12 was read as HPGD inh -25%.
`COc1ccc(C2/C(=C(/O)c3ccccc3)C(=O)C(=O)N2c2ncccn2)cc1OC` (configuration not stated) gave HPGD inh -22%.
CCCCC(=O)Nc1cccc(-c2nn3c(C)nnc3s2)c1 was read as HPGD inh 16µM*.
`COc1ccccc1CC(=O)NN1C(=O)c2ccccc2C1=O` gave HPGD inh 3%.
For CC1=C(C(=O)Nc2ccccc2)C(c2sccc2C)n2nnnc2N1 (configuration not stated) the results were HPGD inh -14%.
For C=CCn1c(SCCOc2ccc(OC)cc2)nnc1C(NC(=O)c1ccc(OC)cc1)C(C)C (configuration not stated) the results were HPGD inh -3%.
O=C(CN(C(=O)c1ccc(Cl)cc1)C1CCCCC1)Nc1ccc(Cl)c([N+](=O)[O-])c1 was read as HPGD inh -13%.
For CCN(Cc1ccccc1)C(=O)COC(=O)CNS(=O)(=O)c1ccc(C)cc1 the results were HPGD inh -10%.
For O=C(O)CCc1ccc(-c2ccc(F)cc2)n1Cc1ccco1 the results were HPGD inh -8%.
`CCOC(=O)N1CCC(NC(=O)C2CCN(c3ccc(N4CCOCC4)nn3)CC2)CC1` gave HPGD inh inconclusive.
For CCN(CC)S(=O)(=O)c1c(Br)cc(C)cc1Br the results were HPGD inh -12%.
For CCCCOC(=O)c1ccc(Nc2ccc([N+](=O)[O-])cn2)cc1 the results were HPGD inh -16%.
For O=C(Cn1nc(-c2ccccc2)c2ccccc2c1=O)Nc1ccccn1 the results were HPGD inh inconclusive.
Cc1cc(C)nc(N2CCCC(C(=O)Nc3ccc4c(c3)OCO4)C2)n1 (configuration not stated) was read as HPGD inh -4%.
For Cc1cc(C(=O)OCC(=O)N2CCN(C(=O)c3ccco3)CC2)c(C)n1-c1ccc(F)cc1 the results were HPGD inh -10%.
`Cc1cccc2nc(CSC(=N)N)c(Br)n12` gave HPGD inh -6%.
CCNCCNC(=O)c1c(O)c2cccc3c2n(c1=O)CCC3 was read as HPGD inh -8%.
CC(C)CCn1c(N2CCC(C(N)=O)CC2)nc2c1c(=O)[nH]c(=O)n2C was read as HPGD inh -24%.
Screening COCCn1c(SCC(=O)c2[nH]c(C)c(C(C)=O)c2C)nc2ccccc21 returned HPGD inh -12%.
CCCOC(=O)c1ccc(-n2nnnc2SCC(=O)N2CCCCC2)cc1 was read as HPGD inh -13%.
`CC1(C)CC(=O)C=C(NCc2cccs2)C1` gave HPGD inh -5%.
